Compound activity deposited in PubChem by ICCB-Longwood Screening Facility, Harvard Medical School.
GIV Gai3 FP – blocks GIV peptide binding to rat Galpha-i3. 210,000 compounds, 0.42% hits. Galpha-i3/FITC-GIV peptide fluorescence polarization, 90 min; stronger effect = lower value; scaled: aluminum fluoride 0%, vehicle 100%. percent of control (FP), % (test concentration not listed). AID 1224905;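 active = replicate mean at 85% of control or lower, very high polarization wells dropped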;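 note: wells of about 15 µL received 100 nL stock; the first replicate is given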
Target sequence (P08753 whole entry, looked up): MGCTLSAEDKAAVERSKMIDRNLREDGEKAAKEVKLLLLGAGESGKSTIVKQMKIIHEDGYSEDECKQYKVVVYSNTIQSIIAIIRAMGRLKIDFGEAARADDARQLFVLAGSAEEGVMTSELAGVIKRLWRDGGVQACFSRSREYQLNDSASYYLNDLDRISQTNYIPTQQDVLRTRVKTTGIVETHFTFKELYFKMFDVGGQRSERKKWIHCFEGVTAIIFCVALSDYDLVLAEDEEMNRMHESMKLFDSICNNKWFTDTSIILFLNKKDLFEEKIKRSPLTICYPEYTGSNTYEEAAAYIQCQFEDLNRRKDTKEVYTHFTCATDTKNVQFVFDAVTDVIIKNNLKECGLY
Sa growth 42C – inhibitors of Staphylococcus aureus growth at 42 °C; AID 720641; S. aureus RN4220 growth, OD600, 20 h; stronger effect = lower value; 170,000 compounds, 0.53% hits; relative growth, % (test concentration not listed);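 active = growth at 42 °C up to 50% and 20 or more points under that at 30 °C, or under 10% at both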;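 note: 300 nL library stock went into each well; scaled to the means of positive and negative controls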
HCMV NEC inh – disrupts HCMV UL50-UL53 complex binding; HTRF UL50-UL53 interaction, normalized percent inhibition; inhibition, % (no concentration beside the values); 190,000 compounds, 0.15% hits; AID 1918969;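 active = both replicates at 50% or more, plus weaker picks with an unusually low signal ratio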;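 note: stock transfer was 100 nL into about 20 µL; 0% = negative control wells and 100% = wells with untagged competitor protein; inactives centre near -12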
Sa growth 42C second temp – recorded beside Sa growth 42C, whose call it bears; relative growth, %; measured here: growth at 30 °C;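 optical density after 20 h as mean of two plates; 100% = untreated growth and lower means inhibition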
* marks the source's active call; other numbers are inactive results; · = no result given; & = joins results of further samples.

SMILES	GIV Gai3 FP	Sa growth 42C	Sa growth 42C second temp	HCMV NEC inh
Cc1ccc(NC(=O)C(Cc2ccccc2)NS(=O)(=O)c2ccc3c(c2)oc(=O)n3C)cc1 (stereo unspecified)	106	102	81	-6
O=C(Nc1nnc(SCc2cc(=O)c3ccccc3[nH]2)s1)c1ccccc1	102	97	87	·
COc1ccc(Cl)cc1-n1nnc(-c2nc(-c3ccc4c(c3)OCO4)no2)c1C	103	94	93	·
N/C(=N\OC(=O)C12CC3CC(CC(C3)C1)C2)c1cccnc1	97	99	80	-14
O=c1n(-c2ccccc2)c(=O)n2n1CC(O)C2	105	97	88	-30
COC(=O)CCC(=O)Nc1ccccc1C(N)=O	107	96	91	-17
COc1ccc(Nc2nc(C(=O)N3CCN(C)CC3)cs2)cc1	·	101	88	-4
CC1=CC(=NC(=O)c2ccco2)C(C)=CC1=O	·	119	85	-24
CSc1nnc(-c2ccccc2)o1	108	100	107	1
Cn1c(=O)c2c(nc(N3CCCC3)n2Cc2ccc(Cl)cc2)n(C)c1=O	103	82	80	-5
CCOC(=O)C1CCN(c2cc(C(F)(F)F)nc3ccc(Br)cc23)CC1	112	105	92	-11
COc1ccc(-c2oc3ncn4nc(CSc5nc6ccccc6o5)nc4c3c2-c2ccc(OC)cc2)cc1	101	·	·	-11
Cn1nc(C(=O)Nc2ccc(F)cc2)c2c1-c1ccccc1S(=O)(=O)C2	104	·	·	0
Cc1ccc(NC(=O)c2nnn(Cc3ccc(Br)cc3)c2N)c(Cl)c1	103	·	·	-26
CC1CCN(CCC(=O)Nc2ccc3c(c2)OCO3)CC1	·	116	88	0
Cc1nnc(NC(=O)c2ccc3c(c2)C(=O)N(C2CCCCC2)C3=O)s1	111	99	99	-20
CCN(Cc1ccccc1)C(=O)Cn1c(=O)n(Cc2ccccc2)c(=O)c2c1c1cc(OC)ccc1n2C	101	93	85	-20
CCN(CC)CCOC(=O)c1ccc(Nc2c3c(nc4ccccc24)CCC3)cc1	104	100	92	-20
COC(C(=O)O)c1ccccc1 (stereo unspecified)	107	·	·	3
CSc1ccc(/C=C/c2nc3ccccc3n2S(=O)(=O)c2cccc(Cl)c2)cc1	98	88	47	-50
CCC(Sc1nc2nccnc2c(=O)n1Cc1ccccc1Cl)C(=O)NC1CCCCC1 (stereo unspecified)	101	97	87	-16
O=C(NCc1cccc(Cl)c1)c1ccc2c(c1)nc1n2CCOC1	106	71	85	·
CNC(=O)c1cnc2sc(N3CCCCCC3)nn2c1=O	112	87	97	·
CCN1CCN(c2ccc(NC(=O)c3cccc(Cl)c3Cl)cc2)CC1	104	111	75	-7
CC(C)NC(=O)CCn1c(=O)c2cc(Cl)ccc2n2c(=S)[nH]nc12	108	·	·	9

Compounds listed so far with an NH in an aromatic ring (two):
SMILES	GIV Gai3 FP	Sa growth 42C	Sa growth 42C second temp	HCMV NEC inh
O=C(Nc1nnc(SCc2cc(=O)c3ccccc3[nH]2)s1)c1ccccc1	102	97	87	·
CC(C)NC(=O)CCn1c(=O)c2cc(Cl)ccc2n2c(=S)[nH]nc12	108	·	·	9

Looked up by compound from the entries so far, 3 records:
SMILES	GIV Gai3 FP	Sa growth 42C	Sa growth 42C second temp	HCMV NEC inh
CCOC(=O)C1CCN(c2cc(C(F)(F)F)nc3ccc(Br)cc23)CC1	112	105	92	-11
CC1=CC(=NC(=O)c2ccco2)C(C)=CC1=O	·	119	85	-24
O=c1n(-c2ccccc2)c(=O)n2n1CC(O)C2	105	97	88	-30

(list continues)
SMILES	GIV Gai3 FP	Sa growth 42C	Sa growth 42C second temp	HCMV NEC inh
O=C(NCCCN=C1NS(=O)(=O)c2ccccc21)c1ccncc1	103	90	94	-34
CCOc1ccc2c(c1)C(NCCN1CCOCC1)CC(C)(C)O2 (stereo unspecified)	100	72	94	4
CC1CCN(C(=O)CC(C(=O)N2CCc3ccccc32)n2ccnc2)CC1 (stereo unspecified)	104	99	69	-14
O=C1C2CCCCC2C(=O)N1c1cccc(OS(=O)(=O)c2ccccc2)c1 (stereo unspecified)	100	·	·	-14
CCN(Cc1ccccc1)C(=O)Cn1c(=O)n(-c2cccc(OC)c2)c(=O)c2sccc21	103	112	88	·
Cc1cccc(NS(=O)(=O)c2cc(C(=O)N3CCCC3)cs2)c1C	108	·	·	-39
COc1cc(OC)c(C2=NOC(C(=O)Nc3cc(C)n(CC(=O)NCc4ccco4)n3)C2)cc1Cl (stereo unspecified)	109	103	92	-16
O=C(CSc1nccn2nc(-c3ccc(Cl)cc3)cc12)NC1CCCC1	100	·	·	-10
COc1ccc(CCC(=O)N(C)C)cc1	101	96	99	11
Cc1cc2occ(CC(N)=O)c2cc1Cl	101	108	99	-15
O=C(CSc1nnc2n(Cc3cccs3)c(=O)c3sccc3n12)Nc1ccc2c(c1)OCO2	108	·	·	-12
Cc1ccc(-n2nc(C(=O)N3CCCC(C)C3)c3c4ccccc4n(C)c3c2=O)cc1 (stereo unspecified)	110	104	94	20
NS(=O)(=O)c1ccc(NC(=O)CN2C(=O)COc3ccc(Cl)cc32)cc1	107	79	94	-30
CCOC(=O)C1=C(C)N=c2s/c(=C\c3cc(Br)ccc3O)c(=O)n2C1c1cccs1 (stereo unspecified)	115	·	·	0
CCc1nn(Cc2ccccc2)c(=O)c2cc3cc(C)ccc3n12	98	90	88	·
CCn1c(=O)c(N2CCCC(C(=O)NCc3ccccc3Cl)C2)nc2ccccc21 (stereo unspecified)	106	·	·	5
Cc1[nH]c(C)c(S(=O)(=O)N2CCC(C(=O)NC(C)(C)C)CC2)c1C(=O)N1CCCCC1	108	·	·	-8
COc1ccc(CNC(=O)c2ccc(NC(=O)N3CCSc4ncccc43)cc2)cc1	101	91	88	·
COc1ccc(-c2nnc(Oc3cccc(NC(C)=O)c3)c3ccccc23)cc1	98	·	·	-4
Cc1nc2nc(CNC(=O)OC(C)(C)C)nn2c(C)c1CCC(=O)NCc1ccccc1Cl	102	96	83	-15
O=S(=O)(c1ccc2[nH]c3c(c2c1)CCCCC3)N1CCN(c2cccc(Cl)c2)CC1	104	109	99	·
CCn1c(CN2CC(C)OC(C)C2)nc2c1c(=O)n(C)c(=O)n2C (stereo unspecified)	102	·	·	-20
COc1ccc(C2CC(c3cccs3)=NN2S(=O)(=O)c2ccc(C)cc2)cc1 (stereo unspecified)	106	·	·	-17
O=S(=O)(c1c(Cl)sc(Cl)c1Br)N1CCCC1	102	107	89	-19
O=C(O)CN1C(=O)c2ccccc2S1(=O)=O	109	·	·	-10
SMILES	GIV Gai3 FP	Sa growth 42C	Sa growth 42C second temp	HCMV NEC inh
COc1ccc(CNC(=O)c2scc(-c3ccccc3)c2S(=O)(=O)N(C)c2ccc(C)cc2)cc1	99	·	·	-28
O=C(c1ncc[nH]1)c1ccccc1C(=O)N1CCCC1	·	100	90	-11
CCN(CCCNC(=O)c1sc2ncn(CC(=O)N3CCCCC3C)c(=O)c2c1C)Cc1ccc(C)cc1 (stereo unspecified)	100	·	·	-21
Cn1c(CN2CCCCC2)nc2cc(NC(=O)c3ccccc3Cl)ccc21	103	110	105	-6
CN1C(=O)c2ccc(-c3nc4ccccc4c(=O)o3)cc2C1=O	102	99	93	-10
Cc1ccc2nc(-c3cccc(NC(=O)C4CCCO4)c3)oc2c1 (stereo unspecified)	107	84	84	4
Cc1c(Br)c(C(F)(F)F)nn1CC(N)=O	·	83	95	-10
Cc1csc(N2N=C(c3ccccc3C)CC2c2ccccc2)n1 (stereo unspecified)	100	·	·	-35
Cc1cc(=O)n2nc(N)sc2n1	103	105	91	-26
CCc1ccc(/C=C2\SC(=O)N(CC(=O)N3CCOCC3)C2=O)cc1	104	93	46	-41
Cc1ccc(OCC(=O)Nc2ccc(-c3nc4ccccc4o3)cc2)c(C)c1	93	94	93	11
CCC(C)Nc1cc(C)nc2c(C)c(-c3ccccc3)nn12 (stereo unspecified)	109	·	·	-16
COc1c[nH]n(-c2ccccc2)c(=O)c1=O	105	82	78	-35
CCCn1c(-c2ccccc2Cl)nc2ccccc21	106	74	75	·
COc1ccc(OC)c(NC(=O)CCc2c(C)nn(-c3ccc(N4CCCC4)nn3)c2C)c1	108	106	92	·
Cc1occc1C(=O)C(C#N)=C(NCc1cccnc1)NCc1cccnc1	96	91	86	-23
O=C(NC(Cc1c[nH]c2ccccc12)C(=O)O)/C(=C/c1ccco1)NC(=O)c1ccccc1 (stereo unspecified)	101	·	·	-14
C=CCn1c(SCC2=C(C(=O)OCC)C(C)NC(=O)N2)nnc1-c1ccoc1C (stereo unspecified)	·	103	91	-12
Nc1nc2nc(-c3ccc(Cl)cc3)cc(C(F)(F)F)n2n1	99	96	99	-18
CCOc1ccccc1Oc1nc(C)nc2c1oc1ccccc12	114	134	99	·
Cc1ccc(N(C)S(=O)(=O)c2ccc3[nH]c(=O)ccc3c2)cc1	109	133	95	·
O=C(OCc1nc2ccccc2c2ccccc12)C1=COCCO1	·	92	95	-13
COc1ccc(CCNc2ncc3c(n2)c(=O)c(C#N)c2[nH]c4ccccc4c(=O)n23)cc1OC	·	130	98	-65
O=C1C(=Nc2cccnc2)c2ccccc2N1Cc1ccccc1	·	59	62	2
Cc1ccc(-c2c(C(F)(F)F)nn3c(C)cc(C)nc23)cc1	97	·	·	-4
SMILES	GIV Gai3 FP	Sa growth 42C	Sa growth 42C second temp	HCMV NEC inh
O=C(NCCSc1c[nH]c2ccccc12)c1ccccc1Cl	105	101	84	-3
COc1ccc(CCNC(=O)c2cc(=O)[nH]c3ccc(Br)cc23)cc1OC	99	108	84	-7
CC(=O)C1=C(c2ccc(Cl)c(Cl)c2)N(C(C)=O)n2cnnc2S1	105	105	97	·
COc1ccc(NC(=S)N(C(C)C)C2CCN(C(C)C)CC2)cc1	99	90	96	3
CC(C)[C@H](NC(=O)c1ccccc1)C(=O)OCn1nnc2ccccc2c1=O	·	95	96	-37
O=C(O)C1(c2ccc3c(c2)OCCO3)CCCC1	108	105	88	-20
CC(C)C(=O)Nc1cccc(S(=O)(=O)c2cccc(NC(=O)C(C)C)c2)c1	108	107	82	-29
COc1ccc(N2C(=O)CCS2(=O)=O)cc1S(=O)(=O)Nc1ccc(N(C)C)cc1	108	·	·	-16
ON=C1CCCCC1	·	89	93	-17
COc1ccc(NC(=O)Cn2cnc3ccc(S(=O)(=O)N4CCC(C)CC4)cc3c2=O)c(OC)c1	100&100	88	95	18&-11
COc1ccc(C2=NC(C)(C)N(CC(=O)Nc3cc(OC)cc(OC)c3)C2=O)cc1	110	100	88	4
Cc1cccc(OCC(=O)Nc2ccccc2N2CCCCC2)c1	109	114	99	1
CCNC(=S)NC1CC2CCC1C2 (stereo unspecified)	94	89	105	9
Cc1cccc(-c2noc(-c3ccccc3NC(=O)C3CC(=O)N(C4CCCCC4)C3)n2)c1 (stereo unspecified)	106	·	·	-18
CCSC1=NSC2=NC(=O)/C(=C\c3ccc(OC(=O)c4ccco4)c(Cl)c3)C(=N)N12	174	112	77	·
O=c1c(-c2ccccc2)coc2c(CN3CCCCCC3)c(O)ccc12	108	97	91	10
CN1C(C(=O)c2ccccc2)=C(OC(=O)c2ccc(Br)cc2)c2ccccc2S1(=O)=O	97&101	102	98	2&-18
CCC(C)NC(=O)CSc1nc2ccc(Br)cc2c2nc3ccccc3n12 (stereo unspecified)	101	85	86	·
O=C(Nc1ccc(Cl)cc1)C1CCCN(c2nc3ccccc3nc2C(F)(F)F)C1 (stereo unspecified)	102	·	·	-4
Cc1cccc(N2C(=O)CN(Cc3cccs3)C2=S)c1	102	87	85	-26
CCCN1Cc2cccc(C(=O)Nc3ccc(OC)cc3OC)c2C1=O	99	92	77	1
COc1ccc(OC)c(C2=NOC(C(=O)NC(C)(C)C)C2)c1 (stereo unspecified)	98	112	94	-20
COc1ccc(-c2ccc(/C=C3\C(=O)N(c4cccc(Cl)c4)N=C3C)o2)cc1[N+](=O)[O-]	103	·	·	-33
CCOc1ccccc1NC(=O)C1SC(=Nc2ccccc2OC)C(C(N)=O)=C1N (stereo unspecified)	·	93	91	-17
Cc1nn(-c2ccccc2Cl)c2[nH]c(=O)cc(C(F)(F)F)c12	105	68	42	-24
SMILES	GIV Gai3 FP	Sa growth 42C	Sa growth 42C second temp	HCMV NEC inh
CCN(CC)c1ccc(C=NCCc2ccccc2)c(O)c1	109	84	71	·
Cc1cc(C(=O)NCc2ccccc2)c2c(C)nn(-c3cccc(F)c3)c2n1	100	86	88	·
COc1ccc2c(c1)c1c3n2CCN(C2CCCCC2)C3=NCC1	100	85	72	·
CCOC(=O)Cn1c(=O)n(CC2CCCO2)c2nc(-c3cccc(C)c3)nc(C(N)=O)c21 (stereo unspecified)	102&107	91	90	3
CN1C(=O)/C(=C(/C#N)C(=O)N2CCCC2)c2ccccc21	·	100	92	14
CCc1ccccc1NC(=O)CCS(=O)(=O)c1ccc2c(c1)CCCN2C(C)=O	106	99	82	-17

A draw from above in order of SMILES length, high to low:
SMILES	GIV Gai3 FP	Sa growth 42C	Sa growth 42C second temp	HCMV NEC inh
COc1ccc(Cl)cc1-n1nnc(-c2nc(-c3ccc4c(c3)OCO4)no2)c1C	103	94	93	·
COc1ccc(C2CC(c3cccs3)=NN2S(=O)(=O)c2ccc(C)cc2)cc1 (stereo unspecified)	106	·	·	-17
Cc1occc1C(=O)C(C#N)=C(NCc1cccnc1)NCc1cccnc1	96	91	86	-23
O=c1c(-c2ccccc2)coc2c(CN3CCCCCC3)c(O)ccc12	108	97	91	10
CCOc1ccccc1Oc1nc(C)nc2c1oc1ccccc12	114	134	99	·
